From PubChem
TRPML1 inh: qHTS for Inhibitors of the Human Mucolipin Transient Receptor Potential 1 (TRPML1). TRPML1-inducible cells, Ca2+ dye fluorescence, FDSS; stronger effect = lower value; inhibition of EC80 agonist-evoked calcium signal. Mucolipin-1 (Homo sapiens), Q9GZU1. hit rate 0.02% among 390,000. activity change, negative = inhibition, % (no concentration beside the values); in the data active means activity change below about -50%; inconclusive means about -30% to -50%; inactive means above about -30%;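 also: stimulus is agonist 54-4 at its EC80 concentration; % is scaled to controls: 0 for no effect and ±100 for the full control effect; compound concentration not given in the record; the text of the record puts the active cut at -80%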
Target sequence (Q9GZU1 whole entry, looked up): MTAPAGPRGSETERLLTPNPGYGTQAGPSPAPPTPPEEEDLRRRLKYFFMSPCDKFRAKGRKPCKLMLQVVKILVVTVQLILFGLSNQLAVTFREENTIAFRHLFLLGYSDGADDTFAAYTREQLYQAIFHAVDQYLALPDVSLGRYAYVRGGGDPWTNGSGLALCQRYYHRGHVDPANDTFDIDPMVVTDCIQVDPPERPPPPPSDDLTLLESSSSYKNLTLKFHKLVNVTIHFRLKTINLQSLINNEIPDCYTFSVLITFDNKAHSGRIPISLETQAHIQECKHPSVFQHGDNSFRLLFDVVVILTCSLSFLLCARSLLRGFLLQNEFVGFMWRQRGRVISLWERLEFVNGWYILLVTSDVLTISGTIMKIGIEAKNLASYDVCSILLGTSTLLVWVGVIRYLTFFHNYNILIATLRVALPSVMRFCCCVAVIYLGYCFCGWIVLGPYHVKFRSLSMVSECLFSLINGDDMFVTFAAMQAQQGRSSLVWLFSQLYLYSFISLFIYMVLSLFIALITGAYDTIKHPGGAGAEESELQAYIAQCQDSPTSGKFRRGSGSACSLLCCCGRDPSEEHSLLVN
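Calcium fluorescence in TRPML1-DL cells induced overnight with Tet: a 110 s read after compound pin addition, then a 110 s antagonist read after challenge with 54-4 at 4 uM final (EC80).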
PINK1 modulator: A Quantitative High throughput Screen to Identify Chemical Modulators of PINK1 Expression; PINK1 immunofluorescence, high-content cytometry, 24 h; hit rate 0.2% among 410,000; Potency, µM (series often up to 76.6 µM), without a hit: at the highest dose activation (PINK1 increase), hits mostly activators; active = well fitted activation curve with a large enough effect; inconclusive = small, poorly fitted or top-dose-only effect; inactive = flat fitted curve, though single readings scatter; cell line not stated here;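 also: potency is read from the fitted curve at half-maximal effect; % of control where 0% means no effect; nearly all actives have a fitted effect of over 65% in size; a mitochondrial uncoupler was the plate control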
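Stable cell line treated 24 h with compounds at 5 concentrations (CCCP controls), then fixed and immunostained for PINK1 plus nuclear and cell stains; PINK1 immunofluorescence quantified by laser-scanning microplate cytometry.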
TRPV1 potentiator: HTS Assay for Compounds that Act as Potentiators of the Vanilloid Receptor 1. hit rate 0.02% among 320,000. Transient receptor potential cation channel subfamily V member 1 (Homo sapiens), Q8NER1. potentiation, % at 8.33 µM. TRPV1-expressing cells, Fluo-8 calcium influx, capsaicin EC20 potentiation; host cell line not named in the record; control for the full effect not named in the record; active means potentiation above 80%; inconclusive means 30% to 80%; inactive means below 30%; also: 0% is about no effect
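Cells expressing TRPV1 were dye-loaded with Fluo-8 and read kinetically: 10 s baseline, 3 min after compound (agonist portion), then 2 min after EC20 capsaicin (allosteric enhancer portion). Calcium-bound dye fluorescence at 480/520 nm.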
Sfp PPTase inh: qHTS Assay for Inhibitors of Bacillus subtilis Sfp phosphopantetheinyl transferase (PPTase). Potency, µM, for inactives: max response, negative = inhibition, hits mostly inhibitors. hit rate 3.5% among 310,000. Biochemical Sfp PPTase activity, qHTS. AID 1490, 2009; active = well fitted inhibition curve with a large enough effect; inconclusive = small, poorly fitted or top-dose-only effect, or another doubt; inactive = no such curve, though single readings can be large or run the other way;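 also: the enzyme is Sfp with the accession as filed and its product quenches rhodamine fluorescence; potency is read from the fitted curve at half-maximal effect; 0% = enzyme reaction without inhibitor and -100% = no enzyme wells; top concentration of the series not given in the record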
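Reaction rates are the 30-min fluorescence difference (ex 525, em 598 nm) in wells containing 15 nM Sfp, 5 uM rhodamine-CoA and 12.5 uM BHQ-2-YbbR at pH 7.6 with 10 mM MgCl2.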
TRPML1 agonist: qHTS for Agonists of the Human Mucolipin Transient Receptor Potential 1 (TRPML1); Mucolipin-1 (Homo sapiens), Q9GZU1; TRPML1-expressing cells, Ca2+ dye fluorescence, FDSS; host cell line not named in the record; reference of the full effect not given here; activation, % (concentration not given with the values); hit rate 0.12% among 410,000; AID 624414, 2012; in the data active = activation above about 50%; inconclusive = about 30% to 50%; inactive = below about 30%; also: 0% is about no effect; the text of the record puts the active cut at 80%
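In this qHTS format, compounds were pin-transferred onto Ca8-dye-loaded TRPML1-DL cells induced with Tet overnight, and intracellular Ca2+ fluorescence was recorded kinetically for 110 s after a 10 s baseline. A subsequent 4uM final 54-4 (EC80) addition followed by a second 110 s read served as the antagonist phase.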
Menin-MLL FL inh: qHTS Assay for Inhibitors Targeting the Menin-MLL Interaction in MLL Related Leukemias: Competition With Fluorescein Labeled MLL-derived Peptide | Fluorescence polarization, fluorescein-MLL peptide displacement from menin | FP activity change, % at 61.4 µM | 290,000 tested, under 10 active; inconclusive = falling polarisation curve, or a change in total fluorescence; inactive = total fluorescence flat and polarisation flat or rising; no compound was filed as active; the % refers to the polarisation; negative = inhibition;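 also: % of control where 0% means no effect; inhibitors lower the polarisation; unlabelled MLL peptide was the positive control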
ClpP mod: qHTS Assay for Activators of ClpP; ATP-dependent Clp protease proteolytic subunit (Bacillus subtilis (strain 168)), P80244; purified B. subtilis ClpP, FRET peptide cleavage, 20 min; Potency, µM (series often up to 57.5 µM), for inactives: at the highest dose activity change, negative = active; hit rate 1.9% among 340,000; active = well fitted falling curve with a large enough effect; inconclusive = small, poorly fitted or top-dose-only effect; inactive = no such curve, though single readings can be large or run the other way; also: potency is read from the fitted curve at half-maximal effect; the source files actives as falling curves though it sought activators and does not explain the sign; nearly all actives have a fitted effect of over 65% in size; many hits overshoot -100%
Target sequence (P80244 whole entry, looked up): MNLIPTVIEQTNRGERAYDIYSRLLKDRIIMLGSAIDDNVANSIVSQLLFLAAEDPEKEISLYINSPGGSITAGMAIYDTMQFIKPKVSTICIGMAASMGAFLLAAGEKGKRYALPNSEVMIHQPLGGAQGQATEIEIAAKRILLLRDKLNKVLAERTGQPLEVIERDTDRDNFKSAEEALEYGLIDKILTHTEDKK
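FRET quenching reversal measured ClpP activation: 10 microg/mL B. subtilis ClpP at pH 8 with the FRET-FV decapeptide, read at 430 nm after 320 nm excitation. The 20-min minus 0-min signal was scaled between DMSO/no-enzyme wells and ADEP (5.8 microM final).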
Starred values were filed as active, the others as inactive; ? = inconclusive; · = no result given; & = joins results of further samples; [ ] = remark or other dose. Rows were taken by chance; about 4.4% have a hit in one of these screens.

SMILES	TRPML1 inh	PINK1 modulator	TRPV1 potentiator	Sfp PPTase inh	TRPML1 agonist	Menin-MLL FL inh	ClpP mod
Cc1ccc(NC(=O)COc2ccccc2C=O)cc1Cl	29	-0.6%	-6	10%	1.4	-1.7	·
Cc1ccc(Nc2nnc(SCC(=O)NCCN3C(=O)CSC3=O)s2)cc1	-14	-0.4%	5	-1%	3.1	-0.2	0.6%
Cc1ccc(N(C(=O)c2csnn2)C(C(=O)NC2CCCCC2)c2cccnc2)c(C)c1 (configuration not stated)	2	-0.2%	4	26%	0.8	-1.0	·
N#C/C(=C(/O)CSc1n[nH]c(N)n1)c1nc2ccccc2[nH]1	·	0.2%	-6	9%	·	10	-1.7%
CC1=C(C(=O)OCc2ccc3c(c2)OCO3)C(c2ccc(O)c([N+](=O)[O-])c2)NC(=O)N1 (configuration not stated)	4	2.2%	-3	7%	2.6	-9.0	·
Cc1ccc(S(=O)(=O)N(C)C)cc1NC(=O)C(C)OC(=O)CC1CC2CCC1C2 (configuration not stated)	-16	1.2%	·	·	-0.5	·	-1.4%
O=C(CCc1ccc(O)cc1)c1c(O)cc(O)cc1O[C@H]1OC(CO)C(O)C(O)C1O (some centres not stated)	·	0.0%	·	0%	·	0.4	·
CCCCNc1c2c(nc3c(-c4ccccc4)c(C)nn13)CCC2	10	19%[38.3 µM]	18	-8%	1.5	-0.1	742%
O=C(NCc1cccnc1)c1noc2c1CCCC2	5	-1.7%[38.3 µM]	-1	11%	-0.1	2.8	-0.5%
Cc1cc(N2CCOCC2)nc(N)n1	-27	-1.7%	-5	10%	-0.2	-0.6	-1.0%
COC(=O)c1ccccc1OCCOCCOc1cccc2cccnc12	-1	1.6%	3	-20%	0.1	·	-5.2%
CCC(C)(C)NC(=O)c1cc([N+](=O)[O-])ccc1N1CCOCC1	-2	-0.5%	-5	9%	0.6	3.3	-3.1%
Cc1ccccc1NC(=O)Nc1cc(S(N)(=O)=O)ccc1C	12	3.3%[38.3 µM]	·	4%	-0.1	-2.5	1.1%
COc1ccc(CCCNC(=O)C2CCC(=O)N(CCCN3CCCC3=O)C2)cc1 (configuration not stated)	13	0.4%	-4	8%	0.2	·	-0.3%
Cc1ccc(S(=O)(=O)N2CCCc3cc(NS(=O)(=O)c4ccccc4)ccc32)cc1	45	0.1%	·	·	-0.1	·	-2.3%
Cc1cccc(OCC(=O)Nc2nnc(S(=O)(=O)N3CCC(C)CC3)s2)c1	-13	-0.5%	25	12%	-0.5	-4.7	-6.8%
CCC1CCCCN1C(=O)CCNC(=O)Cn1cnc2ccccc2c1=O (configuration not stated)	-2	2.4%	0	19%	-1.0	-0.3	-0.7%
COCCCNC(=O)Cn1nnc(-c2ccc(NC(=O)c3ccc(F)cc3)cc2)n1	-5	-1.0%[38.3 µM]	9	6%	-0.4	1.7	-8.4%
CC(C)(C)OC(=O)N1CCC(C(=O)Nc2cccc(C(=O)NCCc3ccccc3)c2)CC1	-7	-0.4%	·	·	2.3	·	-0.5%
Cc1ccc(NC(=O)NCCCl)cc1S(=O)(=O)N1CCOCC1	9	-0.4%	-2	13%	0.0	-2.3	0.1%
Cc1nc2cc(S(=O)(=O)C(F)(F)F)ccc2s1	-4	-3.5%	-5	-15%	-0.4	-2.3	2.3%
CCc1nc(N[C@H](C(=O)O)C(C)CC)c2oc3ccccc3c2n1 (some centres not stated)	12	2.5%	16	6%	-0.1	2.0	-2.8%
Cc1nc(-c2nc(-c3c(C(=O)NNC(=O)Nc4ccccc4)noc3C)cs2)cs1	-10	2.4%	·	-7%	2.1	2.1	0.6%
Cc1cccc(NC(=O)c2cccc(S(=O)(=O)N(C)C3CCCCC3)c2)n1	9	0.7%	·	·	0.5	·	-2.6%
Cc1nc(NC(=O)c2ccc(Br)s2)sc1C(=O)N(C)C	16	4.9%[38.3 µM]	-14	4%	0.1	0.3	-2.1%
COc1cc(C(=O)OCC(=O)NCCC2=CCCCC2)ccc1OCC(C)C	38	5.3%	-10	·	3.0	·	-3.0%
COc1cc(C(=O)NNC(=O)c2ccc(S(=O)(=O)N3CCCCC3)cc2)cc(OC)c1OC	0	7.1%	5	21%	0.4	2.7	1.2%
N#Cc1ccc(CN2CCN(C(=O)c3cccc(S(=O)(=O)N4CCCCCC4)c3)CC2)cc1	-2	-1.3%	-27	·	0.1	·	-2.6%
Cc1ccc(CC(=O)O/N=C(\N)c2ccccn2)cc1	-5	-0.4%	-7	7%	-0.6	·	0.5%
CC(=O)NC1CC2CCCC(C1)N2Cc1ccc(C)cc1 (configuration not stated)	-27	0.2%	-10	19%	-0.2	1.9	2.4%
c1ccc(-c2[nH]ncc2CN2CCN(Cc3ccc4c(c3)OCO4)CC2)cc1	2	-1.4%	18	9%	-0.2	-2.7	·
Cc1ccc(S(=O)(=O)N2CCN(C(=O)COC(=O)/C=C/c3ccccc3F)CC2)c(C)c1	18	-0.3%	-12	·	1.4	·	-0.2%
COc1ccc(-c2[nH]c(-c3ccc(Cl)cc3)nc2SCC(=O)NCC2CCCO2)cc1 (configuration not stated)	24	-1.6%	·	·	-0.7	·	25µM*
COc1ccc(N2CCN(C(=O)c3ccc(Oc4ccc(C(F)(F)F)cn4)cc3)CC2)cc1	10	4.2%[38.3 µM]	·	-6%	1.1	-0.8	0.7%
COc1ccc(-n2cc(CN3CCCC3)c(-c3cccc(F)c3)n2)cc1	6	3.7%	-3	4%	0.7	4.4	·
O=C(NC(Cc1ccccc1)C(=O)O)c1ccc(S(=O)(=O)N2CCOCC2)cc1 (configuration not stated)	-10	-3.4%[38.3 µM]	0	12%	0.5	0.5	1.0%
COc1ccc(CNc2ncnc3sccc23)cc1	13	-0.6%	7	4%	-0.3	2.1	·
CC(C)(C)c1cc(C(C)(C)C)c2oc(=O)c(-c3nc4ccc(C(=O)O)cc4[nH]3)cc2c1	25	11%	-11	·	-0.9	·	4.4%
CCn1ncc(C2=NOC(C(=O)Nc3ccc4c(c3)OCO4)C2)c1C (configuration not stated)	17	1.3%[38.3 µM]	0	-4%	-0.5	-3.0	-0.7%
COc1ccc(COC(=O)CCS(=O)(=O)c2ccc(C)cc2)cc1F	-5	1.4%	-27	·	-0.7	·	-2.6%
CCOC(=O)N1CCC2(CC1)C(C#N)=C(N)Oc1c2sc2nc(C)cc(C)c12	3	-3.5%[38.3 µM]	6	?	0.9	2.0	0.1%
CCn1c(SCC(O)c2ccccc2)nnc1-c1ccccc1 (configuration not stated)	-2	-1.1%	-8	19%	0.0	4.3	-8.1%
Cc1cc([N+](=O)[O-])cc2c1NCC1CC=CC21 (configuration not stated)	37	2.6%	11	5%	1.9	6.8	0.1%
Cc1nnsc1C(=O)Nc1ccccc1	1	0.3%	-5	5%	0.4	-3.6	1.2%
COc1cc(NC(=O)Cc2c(C(=O)O)n(C)c3ccccc23)cc(OC)c1OC	-8	-2.7%	1	22%	1.9	-5.1	·
COCc1nnc(NC(=O)c2cc(OC)c(OC)c(OC)c2)s1	2	1.0%	·	·	-0.4	·	-2.4%
COc1ccccc1-c1c(C)nn2c(-c3ccccc3)cc(C)nc12	0	0.1%	-13	1%	4.6	-0.2	·
COc1ccc(N2CCN(C(CNC(=O)c3ccc4c(c3)OCO4)c3ccco3)CC2)cc1 (configuration not stated)	-5	-2.0%	-12	2%	2.4	-0.3	·
Cc1oc(-c2ccc(Cl)cc2)nc1CN1CCCC(C(=O)NCc2ccc(Cl)cc2)C1 (configuration not stated)	16	1.3%	·	·	-0.3	·	0.4%
Cc1ccc(C)c(OCC(O)CN2CCN(CCN3C(=O)c4cccc5cccc(c45)C3=O)CC2)c1 (configuration not stated)	13	7.6%	18	-28%	2.4	8.3	?
CCc1ccc(NC(=O)CSc2n[nH]c(C)c2[N+](=O)[O-])cc1	-14	2.4%	-4	20%	0.0	2.2	2.0%
CS(=O)(=O)N1CCN(C(=O)Nc2ccccc2)CC1	-9	1.8%	-5	16%	1.5	-0.4	·
CCCc1cc(NCCOCCO)n2c(nc3ccccc32)c1C#N	0	1.0%	·	·	-0.3	·	3.7%
CCOc1ccc(CNc2ccc(N3CCOCC3)c(C(=O)O)c2)cc1	1	0.0%	8	2%	-0.5	3.2	-4.6%
Cn1cccc1/C=C1\CCC/C(=C\c2cccn2C)C1=O	-10	12%	-10	-23%	?	?	0.2%
CC1CC(C)CN(S(=O)(=O)N2CCCC(C(=O)NCCc3ccccc3)C2)C1 (configuration not stated)	11	4.2%	-6	13%	-1.0	·	0.6%
COc1ccc(NC(=O)N(C)C[C@H]2Oc3ccc(NS(=O)(=O)c4ccccc4)cc3C(=O)N([C@H](C)CO)C[C@@H]2C)cc1	11	-0.6%	·	·	-0.1	·	-4.3%
CCC(=O)NC(c1ccc(N(C)C)cc1)c1c(O)ccc2ccccc12 (configuration not stated)	-10	3.6%	13	2%	-0.2	1.3	·
CCCc1nnc2n1N=C(c1ccc([N+](=O)[O-])cc1)CS2	9	2.6%	-4	3%	0.1	-2.1	-4.3%
COc1ccc(OC)c(S(=O)(=O)NCC(c2ccco2)S(=O)(=O)c2ccccc2)c1 (configuration not stated)	3&3	8.4%&0.8%	2	·	-0.4&0.6	·	0.8%&-2.5%
CC(=O)Nc1ccc(NC(=O)C2(C)Cc3c(-c4cccc(NC(C)=O)c4)ccnc3O2)cc1 (configuration not stated)	·	0.5%	·	·	-0.7	·	-8.0%

Entries of single compounds, looked up by structure. Order of screens: TRPML1 inh	PINK1 modulator	TRPV1 potentiator	Sfp PPTase inh	TRPML1 agonist	Menin-MLL FL inh	ClpP mod
`CCOc1ccc(CNc2ccc(N3CCOCC3)c(C(=O)O)c2)cc1` is listed as 1	0.0%	8	2%	-0.5	3.2	-4.6%
`Cc1ccc(C)c(OCC(O)CN2CCN(CCN3C(=O)c4cccc5cccc(c45)C3=O)CC2)c1` (configuration not stated) is listed as 13	7.6%	18	-28%	2.4	8.3	?
